# Bioassay records: PubChem, several laboratories
# Ecoli growth: blocks Escherichia coli growth; OD600, 23 h; active compounds read low; OD600 absorbance (test concentration not listed); 330,000 compounds, 0.21% hits; AID 1053175;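 active = OD600 absorbance below the run mean of sample wells minus 3.6 SD, in any replicate, cut at about 0.56 in these data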;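 note: stock transfer was 300 nL into about 60 µL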
# HNF4A DNA FP: change in binding of human HNF4 alpha to DNA; P41235; HNF4a-FITC DNA binding, fluorescence polarization, 1 h; activity change, % at 10 µM; 360,000 compounds, 0.3% hits; AID 1224865; in the data active = activity change above about 30%, passing the limit was not always enough;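 note: controls were the assay level and a saturating level of protein; the project sought stronger binding though the title names inhibitors; some compounds called inactive have numbers as strong as hits; positive values seem to mean higher polarization but the record does not say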
# ALR inh: inhibitors of human sulfhydryl oxidase ALR. purified ALR, DTT oxidation, H2O2 HRP-luminol luminescence. AID 485317. P55789. 290,000 compounds, 3.8% hits. inhibition, % (concentration not given with the values);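 active = mean and each replicate at 75% or more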;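 note: stock transfer was 7.5 nL into about 7.5 µL; 0% = neutral wells and 100% = wells with inactivated enzyme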
# Target sequence (P55789 whole entry, looked up): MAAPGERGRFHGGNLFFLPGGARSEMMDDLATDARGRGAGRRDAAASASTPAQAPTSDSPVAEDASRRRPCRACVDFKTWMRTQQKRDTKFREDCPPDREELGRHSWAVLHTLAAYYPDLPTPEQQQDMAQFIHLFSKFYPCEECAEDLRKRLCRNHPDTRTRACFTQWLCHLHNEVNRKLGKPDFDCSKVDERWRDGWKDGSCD
# FGF22 binding: binders of recombinant human FGF22 by thermal shift | 340,000 compounds, 1.5% hits | calls only at 9.99 µM | Q9HCT0 | SYPRO orange fluorescence; percent of sucrose octasulfate shift, DMSO zero;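 active = melting point raised past a set limit in the mean and every replicate; three in four hits are not shown here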
# Target sequence (Q9HCT0 whole entry, looked up): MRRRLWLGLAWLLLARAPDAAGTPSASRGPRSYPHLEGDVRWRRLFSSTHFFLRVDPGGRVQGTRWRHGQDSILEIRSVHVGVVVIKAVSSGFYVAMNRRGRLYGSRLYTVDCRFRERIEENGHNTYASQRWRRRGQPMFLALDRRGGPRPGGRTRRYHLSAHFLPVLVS
# UCH37 inh: inhibitors of human deubiquitinating enzyme UCH37 | Q9Y5K5 | purified proteasome/UCH37, Ub-AMC cleavage fluorescence | inhibition, % (test concentration not listed) | 330,000 compounds, 0.33% hits | AID 588478;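 active = mean of two replicates above 20%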;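 note: 0% = compound-free wells with enzyme and 100% = wells lacking proteasome; stock transfer was 100 nL into about 20 µL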
# Target sequence (Q9Y5K5 whole entry, looked up): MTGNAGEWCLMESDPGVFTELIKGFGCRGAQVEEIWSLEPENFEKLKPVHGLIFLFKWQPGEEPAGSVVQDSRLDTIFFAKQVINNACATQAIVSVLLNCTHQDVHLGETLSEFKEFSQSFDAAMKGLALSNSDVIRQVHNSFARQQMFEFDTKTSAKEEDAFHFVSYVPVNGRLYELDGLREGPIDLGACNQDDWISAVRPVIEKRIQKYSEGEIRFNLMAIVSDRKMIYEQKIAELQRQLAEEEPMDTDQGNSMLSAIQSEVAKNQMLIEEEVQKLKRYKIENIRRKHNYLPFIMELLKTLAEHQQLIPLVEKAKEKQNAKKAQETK
#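 Signal – fluorescence, ex 355 nm, em 460 nm · System – Proteasome-bound UCH37 · Input – 0.15 nM proteasome as dispensed · Timing – 30 min preincubation with enzyme, 25 min cleavage at room temperature · Read-out basis – percent inhibition of cleavage signal versus uninhibited and no-proteasome wells · Medium – Tris-HCl pH 7.4 with ATP-MgCl2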
# Ecoli rRNA inh: inhibits bacterial ribosomal RNA function over humanized ribosomes; 350,000 compounds, 1.6% hits; AID 720706; E. coli WT GFP vs humanized-ribosome RFP mutants, fluorescence, 24 h; active compounds read low; DMSO median 0, no signal -100; GFP signal change (wild-type ribosome), % (no concentration beside the values);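 active = significant combined selectivity score with lowered wild-type GFP, culture density cut under 30%, mutant RFP and density less affected; inactive = any of these conditions unmet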; note: one replicate is shown; some compounds called inactive have numbers as strong as hits
# B2AR ag: activates human beta-2 adrenergic receptor causing internalization; AID 504454; response, % (concentration not given with the values); 340,000 compounds, 0.43% hits; Am2.2-beta2AR cells, FAP receptor internalization, flow cytometry; reference of the scale not given here;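 active = response above a set limit, near 3 SD of response in nonfluorescent compounds, cut at about 42% in these data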;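 note: stock transfer was 100 nL into about 11 µL; a reference agonist was the positive control; negative values mostly stem from fluorescent compounds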
# Ecoli rRNA inh OD600: further read-out of Ecoli rRNA inh, marked with its call; OD600 change, %; measured here: OD600 growth;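 optical density of the mix in the first replicate; 0 = DMSO median and -100 = no signal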
# Ecoli rRNA inh RFP: recorded beside Ecoli rRNA inh, whose call it bears; RFP signal change, %; measured here: RFP humanized mutant strains;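 first replicate; 0 = DMSO median and -100 = no signal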
# Active calls of the source: *; i = inactive; x = not tested or not shown. A portion of the library; rates above refer to the full screens.
molecule,Ecoli growth,HNF4A DNA FP,ALR inh,FGF22 binding,UCH37 inh,Ecoli rRNA inh,Ecoli rRNA inh OD600,Ecoli rRNA inh RFP,B2AR ag
Cc1ccc2c(c1)N(Cc1ccccc1)C(=O)C(C)S2 (stereo not drawn),x,8.1,x,i,x,-23,-40,-2.1,x
CC(C)(C)OC(=O)N1CCOCCOCCN(C(=O)OC(C)(C)C)CCOCC1,0.66,3.4,x,x,6.8,x,x,x,7
O=C(CCNC(=O)c1ccc(Br)cc1)Nc1ccc(S(=O)(=O)Nc2ncccn2)cc1,0.72,3.9,-5,i,3.0,8,14,18,-5
O=C(O)c1ccc(Nc2cnc3ccccc3n2)cc1,0.66,2.0,-10,i,5.5,-7,-10,-4.3,9
CCOc1ccc(C2CC(=O)NC2=O)cc1 (stereo not drawn),0.67,-2.1,9,i,0.3,5,6,-2.1,-4
C#CC(C)(C)NC(=S)NC1CC2C=CC1C2 (stereo not drawn),0.61,-3.0,0,i,2.2,-2,1,-2.2,5
CC1=CC(=O)C(C(C)C)=C/C1=C(\c1cc(C(C)C)c(OP(=O)(O)O)cc1C)c1ccccc1C(=O)O,0.66,-6.5,16,i,3.8,6,-4,0.2,-21
COc1ccnc2c1c(=O)n(Cc1ccccc1Cl)c(=O)n2C,0.73,1.2,-2,i,1.8,12,10,-0.2,-11
CC(=O)c1c(C)[nH]c(C(=O)CSc2nnc(-c3cccs3)n2Cc2ccccc2)c1C,0.76,-3.4,-2,x,2.6,x,x,x,14
COc1ccc(C)cc1-n1nnnc1SCC(=O)NC1CCS(=O)(=O)C1 (stereo not drawn),0.67,-3.5,x,i,0.4,24,7,7.5,-7
CCOc1ccc(CNC(=O)CCS(=O)(=O)Cc2ccccc2C)cc1OC,0.71,-3.9,-5,i,0.1,-5,-4,-7.6,-5
Cc1ccc2c(c1)c(C)c(C)n2CC(O)Cn1nc(C)cc1C (stereo not drawn),0.64,5.0,-9,x,0.4,x,x,x,-4
CCOc1ccccc1CN1CCN(C2CCN(c3ccccc3F)CC2)CC1CCO (stereo not drawn),0.71,-1.8,-5,i,4.3,5,6,-1.3,33
Cn1cnnc1SCC(=O)Nc1ccc(Br)cc1F,0.71,-0.5,2,x,1.7,x,x,x,-3
Cc1ccc(-n2c(Cc3cccn3C)nnc2SCC(N)=O)cc1,0.64,0.5,17,i,1.7,8,0,-5.7,-1

# No new results follow: an excerpt of the list.
molecule,Ecoli growth,HNF4A DNA FP,ALR inh,FGF22 binding,UCH37 inh,Ecoli rRNA inh,Ecoli rRNA inh OD600,Ecoli rRNA inh RFP,B2AR ag
COc1ccnc2c1c(=O)n(Cc1ccccc1Cl)c(=O)n2C,0.73,1.2,-2,i,1.8,12,10,-0.2,-11
CC(=O)c1c(C)[nH]c(C(=O)CSc2nnc(-c3cccs3)n2Cc2ccccc2)c1C,0.76,-3.4,-2,x,2.6,x,x,x,14
COc1ccc(C)cc1-n1nnnc1SCC(=O)NC1CCS(=O)(=O)C1 (stereo not drawn),0.67,-3.5,x,i,0.4,24,7,7.5,-7

# Going on with the list.
molecule,Ecoli growth,HNF4A DNA FP,ALR inh,FGF22 binding,UCH37 inh,Ecoli rRNA inh,Ecoli rRNA inh OD600,Ecoli rRNA inh RFP,B2AR ag
Cc1ccc(-c2nn(-c3ccccc3)cc2CSC(=N)N)cc1,x,-0.9,2,x,x,x,x,x,39
Cc1cccc(CN2CCN(C3CN(Cc4cn(Cc5ccccc5F)nn4)S(=O)(=O)C3)CC2)c1 (stereo not drawn),x,-0.5,x,i,x,6,11,-3.0,x
CCOC(=O)N1CCN(C(=O)CN2C(=O)NC(c3ccccc3)(c3ccccc3)C2=O)CC1,0.69,-1.0,x,i,1.8,4,3,-1.0,0
O=C(CN(CCN1CCOCC1)C(=O)Cn1nnc(-c2ccc(F)cc2)n1)NC1CCCCC1,0.7,1.6,x,x,3.1,x,x,x,-11
CC(C)C[C@@H](CO)N1CCNCCC1=O,x,-3.9,1,i,0.5,7,20,7.5,-1
O=C1CN(C(=O)c2ccccn2)c2ccccc2N1,0.71,2.5,-24,x,5.2,x,x,x,0
CCCCC[C@H]1CN(C2CCCCC2)C(=O)[C@@H]1CC(=O)NCc1ccccc1,x,-2.5,-13,i,32*,-14,-31,21,-3
O=C(NCCN1CCOCC1)c1ccc2c(c1)N(Cc1c(F)cccc1Cl)C(=O)c1ccccc1S2,0.69,-0.8,-8,i,2.2,-18,-30,-2.4,1
c1ccc(-c2cc3ccccc3cn2)cc1,x,-0.7,1,i,x,7,26,-3.8,-2
O=c1cc(CSc2ccc(S(=O)(=O)N3CCCCC3)cn2)nc2sccn12,0.7,8.9,-3,x,-1.7,x,x,x,-4
COc1ccccc1-c1ccc2nnc(SC)n2n1,0.69,-2.2,-3,i,-33,-1,11,-0.5,-3
Cc1ccc(/C=C2/SC(=S)N(CCCC(=O)Nc3ccc(O)cc3)C2=O)cc1,0.69,1.1,x,i,2.4,-2,1,0.2,-1
CN(C)S(=O)(=O)c1cccc(C(=O)Nc2cc3c(cc2C(=O)O)OCCCO3)c1,0.67,-2.6,7,i,7.5,-1,5,-3.3,-7
Cc1cc(Cl)ccc1NC(=S)NCCc1ccc(Cl)cc1,0.64,3.8,x,i,4.7,-28,-64,11,-6
COc1ccc(/C=N/NC(=O)COc2ccc3ccccc3c2)c(C(=O)O)c1OC,x,4.5,-8,i,x,5,-2,0.0,5
O=c1cc(O)nc(SCc2ccccc2Cl)[nH]1,0.77,1.7,100*,x,2.4,x,x,x,-1
COc1ccc(/C=C/c2nc(C)c(-c3ccccc3)c(=O)[nH]2)cc1OC,x,1.3,-8,i,0.9,6,-1,-2.3,2
CCOc1ccc(N=C2NC(=O)S/C2=C\c2ccc(N(C)C)cc2)cc1,0.77,34,x,x,8.7,x,x,x,9
N#CC1=C(N)N(c2ccccc2)C2=C(C(=O)CCC2)C1c1cccs1 (stereo not drawn),0.61,15,12,x,2.7,x,x,x,9
Cc1ccc(S(=O)(=O)NCCC(=O)NNC(=O)COc2ccccc2Cl)cc1C,0.67,-1.8,x,i,2.8,-8,-14,1.6,3
O=C1C(=O)N(C2CCS(=O)(=O)C2)C(c2cccc(O)c2)/C1=C(/O)c1ccc(Cl)cc1 (stereo not drawn),0.68,-1.6,3,i,12,7,9,-1.7,2
CC(Oc1ccc(Br)cc1Br)C(=O)Nc1cccnc1Cl (stereo not drawn),0.65,-6.9,-5,i,1.9,-28,-50,0.7,-10
Cc1cn(C(=O)CN2C(=O)c3ccccc3C2=O)c(C)n1,0.69,-4.1,x,x,1.8,x,x,x,-5
CCn1c(SCC(=O)Nc2ccc(Cl)cc2)nc2nc3c(cc2c1=O)CCCC3,0.66,2.6,0,x,0.2,x,x,x,14
CCOc1ccc(Nc2nc(Cc3nnc(SCC(N)=O)o3)cs2)cc1,0.67,2.2,41,x,-0.8,-7,-1,-1.3,-9
NC(=O)CC(NC(=O)c1ccccc1)c1ccc(NCCN2CCOCC2)c([N+](=O)[O-])c1 (stereo not drawn),0.75,0.6,-1,i,4.1,9,15,-0.5,6
COCCSc1ccccc1C(=O)Nc1ccncc1,0.64,-1.0,-4,i,0.4,8,-2,-10,16
CC(=O)NC(CC(=O)Nc1cccc(S(=O)(=O)N2CCOCC2)c1)c1ccccc1 (stereo not drawn),0.69,2.4,x,i,1.7,12,13,-0.8,-4
CCc1ccc(NC(=O)C2CCCN(S(=O)(=O)c3ccc4c(c3)CC(C)N4C(C)=O)C2)cc1 (stereo not drawn),0.77,-0.5,x,i,6.3,-6,-1,1.1,0
CCCCn1nnnc1C1(C)CCC(=O)N1Cc1cccnc1 (stereo not drawn),x,-4.1,x,i,x,11,10,-3.8,x
O=C(Cc1ccccc1)Nc1ccc(N2CCCCC2)cc1,0.74,-0.6,6,x,4.9,-1,14,5.4,5
O=C1NC[C@@H](CCCCN2C[C@H](Cc3ccccc3)N(CCc3ccc(O)cc3)C(=O)C2=O)N(CCc2ccccc2)C1=O,x,1.6,x,i,x,0,-14,5.3,x
COc1ccc2cc(-c3[nH]ncc3CN3CCCC3c3nonc3C)ccc2c1 (stereo not drawn),0.69,2.3,-18,i,-2.1,-23*,-15*,1.0*,-4
Cc1cccn2c(=O)nc(SCC(=O)N3CCC(C)CC3)nc12,0.62,1.6,0,i,-0.4,5,8,0.7,6
CN1CCN(C(=O)C2=C[C@H](C(C)(C)C)C[C@H](OCCCCO)O2)CC1,x,-6.2,x,i,0.5,5,11,10,-8
CCCCNC(=O)c1ccc(S(=O)(=O)c2ccc(Cl)cc2)c(NC(C)=O)c1,0.64,-4.4,-2,x,4.0,x,x,x,-3
CCc1ccc(-c2cnc3nc[nH]c(=O)c3n2)cc1,0.66,-1.1,-3,i,i,x,x,x,5
O=C(NCc1ccco1)C1CC(c2ccc(F)cc2)=NO1 (stereo not drawn),0.71,1.7,-14,i,3.3,9,8,2.6,-3
Cc1cc2ccccc2nc1SCC(=O)N1CCCC1,0.71,-1.2,-1,x,2.5,x,x,x,-3
COc1ccc(CCNc2nc(Cl)nc(NC(C)(C)CO)n2)cc1OC,0.74,-2.9,-2,i,0.9,-1,-2,-0.6,12
Cc1ccccc1-c1ccc(=O)n(CC(=O)Nc2ccc(-n3cnnn3)cc2)n1,0.67,-3.0,-6,i,2.5,-1,-3,-3.9,-5
O=C1c2ccccc2C(Nc2cccnc2)N1Cc1ccc2c(c1)OCO2 (stereo not drawn),0.76,2.8,0,i,1.8,-1,2,0.8,-8
Cc1ccc(C)c2c1cc(C)c1nnc(SCC(=O)NCc3ccc4c(c3)OCO4)n12,0.72,1.2,-5,i,1.5,-10,-15,6.0,-2
O=C(O)c1ccc(CN2CCCCC2)o1,0.68,-2.2,-2,i,1.2,3,-6,-3.9,-2
COCCn1c(SCC(=O)NC2CCCC2)nc2ccccc2c1=O,0.64,-0.2,x,i,5.4,9,7,0.4,5
Cc1nn(C)c(C)c1S(=O)(=O)N(CC(=O)NCCCOC(C)C)c1ccc(C(C)C)cc1,0.75,-1.0,-1,x,1.1,x,x,x,-5
C=CCn1c(SCc2ccc(C(=O)Nc3ccccc3)cc2)nnc1-c1ccccc1,0.74,4.5,-5,i,0.9,-5,1,4.0,-14
C/C(=C\c1ccco1)CN1CCN(Cc2ccc(C)o2)C(CCO)C1 (stereo not drawn),0.7,-1.3,-17,i,-0.1,13,9,0.2,-1
CCN(Cc1ccncc1)C(=O)c1ccccc1NS(=O)(=O)c1ccc(F)cc1,0.7,1.1,1,i,0.0,1,-6,-4.9,-1
Cc1ccc2n(n1)c(=O)c(Cc1ccccc1)c([O-])[n+]2-c1ccccc1,0.67,2.2,-1,x,1.9,x,x,x,-13
CN1C(c2ccccc2)CCOS1(=O)=O (stereo not drawn),0.67,-1.9,-8,i,1.7,10,8,12,-7
CCOC(=O)c1[nH]ncc1CN1CCC(Cc2ccccc2)(C(=O)OCC)CC1,0.73,4.0,2,i,2.1,3,13,-0.4,16
CC(C)(C)NC(=O)c1ccc2c(c1)N(CC(=O)NC1CCCC1)C(=O)C(C)(C)O2,0.65,-2.2,0,i,3.4,7,7,2.2,-4
